EPAC1 agonist = Validation qHTS for agonist of cAMP-regulated guanine nucleotide exchange factor 3 (EPAC1). Potency, µM, inactives show max response, positive = active, usual class: activators. Rap guanine nucleotide exchange factor 3 (Homo sapiens), O95398. EPAC1 Rap1b BODIPY-GDP exchange, fluorescence. 16,000 tested, 1% active; active = well fitted activation curve with a large enough effect; inconclusive = small, poorly fitted or top-dose-only effect; inactive = no such curve, though single readings can be large or run the other way;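 also: nearly all actives have a fitted effect of over 70% in size; series mostly up to about 76 or 150 µM; scaled to a cAMP control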
Target sequence (O95398 whole entry, looked up): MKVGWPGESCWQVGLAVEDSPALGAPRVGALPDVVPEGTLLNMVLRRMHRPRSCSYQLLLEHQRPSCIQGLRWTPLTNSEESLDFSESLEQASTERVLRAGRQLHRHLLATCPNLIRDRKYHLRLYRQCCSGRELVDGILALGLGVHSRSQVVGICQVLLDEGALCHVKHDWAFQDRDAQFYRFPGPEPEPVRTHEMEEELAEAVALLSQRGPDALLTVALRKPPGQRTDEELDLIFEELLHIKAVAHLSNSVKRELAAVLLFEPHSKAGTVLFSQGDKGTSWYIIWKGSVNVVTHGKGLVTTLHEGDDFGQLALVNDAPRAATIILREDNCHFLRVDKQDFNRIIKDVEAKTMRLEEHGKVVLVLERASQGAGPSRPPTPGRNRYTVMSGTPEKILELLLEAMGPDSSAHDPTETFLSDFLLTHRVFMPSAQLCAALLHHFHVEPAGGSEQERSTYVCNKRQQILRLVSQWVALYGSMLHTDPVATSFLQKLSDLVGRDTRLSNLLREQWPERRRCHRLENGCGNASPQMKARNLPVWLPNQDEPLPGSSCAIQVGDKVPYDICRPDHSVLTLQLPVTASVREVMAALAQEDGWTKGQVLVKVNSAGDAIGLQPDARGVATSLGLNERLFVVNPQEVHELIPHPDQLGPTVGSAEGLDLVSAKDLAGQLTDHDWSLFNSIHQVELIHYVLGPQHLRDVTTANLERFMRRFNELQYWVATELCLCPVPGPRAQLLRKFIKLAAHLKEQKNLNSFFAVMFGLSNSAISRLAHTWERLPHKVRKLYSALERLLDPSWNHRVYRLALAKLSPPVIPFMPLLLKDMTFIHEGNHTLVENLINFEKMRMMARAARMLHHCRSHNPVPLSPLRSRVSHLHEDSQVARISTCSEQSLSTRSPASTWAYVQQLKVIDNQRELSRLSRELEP
An asterisk follows results filed as active; ? = inconclusive; & = joins results of further samples; [ ] = another dose, or the depositor's remark. % is scaled to controls: 0 for no effect and ±100 for the full control effect; potency is read from the fitted curve at half-maximal effect.

EPAC1 agonist | SMILES
9.8% | Clc1cccc(C=NC=Nc2cccc(Cl)c2)c1
-6.7% | COCCNc1ncnc2ccc(-c3ccccc3C)cc12
4.3% | COc1ccccc1C(=O)N(Cc1cc2cccc(C)c2nc1N1CCC(O)CC1)C1CC1
-37.2% | CC(=O)OC1CC(OC(C)=O)[C@]2(C)C(CC(OC(C)=O)[C@@]3(C)C4=CC(=O)OC(c5ccoc5)[C@]4(C)CCC32)C1(C)C (some centres not stated)
-27.4% | COc1ccc(NC(=O)N2CCCC3(CCN(C(=O)c4cnccn4)CC3)C2)cc1
9.9%&-26.5% | CC(C)(S)C(=O)N[C@@H](CS)C(=O)O
-0.9% | CC(C)CCCC(C)N (configuration not stated)
-18.2% | COc1c2ccoc2nc2c(OC)c(O[C@@H]3O[C@H](C)[C@@H](O)[C@@H](O)[C@H]3O)ccc12
3.9% | COc1ccc(S[C@@H](CCN2CC[C@H](O)CCC2=O)c2ccccc2)cc1
-29.4% | CN1C(C)(C)CCCC1(C)C
-10.3% | CCC[C@H]1COCCS(=O)(=O)N1Cc1ccc(Br)cc1
-13.4% | C[Se]CC[C@H](N)C(=O)O

3 of the entries above in order of the EPAC1 agonist value, falling.
EPAC1 agonist | SMILES
9.8% | Clc1cccc(C=NC=Nc2cccc(Cl)c2)c1
3.9% | COc1ccc(S[C@@H](CCN2CC[C@H](O)CCC2=O)c2ccccc2)cc1
-27.4% | COc1ccc(NC(=O)N2CCCC3(CCN(C(=O)c4cnccn4)CC3)C2)cc1

(continued)
EPAC1 agonist | SMILES
-9.2% | Cc1c(CC(C)(C)C(=O)O)n(Cc2ccc(Cl)cc2)c2ccc(F)cc12
-25.5% | COC(=O)c1c(OC)cc2c(c1C)Oc1c(Cl)c(OC(C)=O)c(Cl)c(C)c1C(=O)O2
22.4% | CC(C)C[C@@H](CO)N1CCNCCC1=O
? | COC1=CC(C)C2CC3OC(=O)CC4C(C)=C(OC)C(=O)C([C@]2(C)C1=O)[C@]34C (some centres not stated)
-1.0%&-0.7% | Cc1cc(C2CCCCC2)n(O)c(=O)c1
7.4% | CC(=O)c1ccccc1-c1ccc2c(c1)CC(CNC(=O)Cc1c[nH]c3ccccc13)O2 (configuration not stated)
-21.6% | COC(=O)N1CCC2(CCCN(Cc3ccccc3)C2)CC1
10.3% | O=C(Cn1nc2ccccc2n1)N1CCOc2ccc(CN3CCc4sccc4C3)cc2C1
-30.2%[inhibitor] | O=C(Oc1ccccc1)N1CCC2(CCCN(c3ccncc3)C2)CC1
-10.7% | CC1=C(C2=C(C)C(C(C)C)C3=C(C(=O)C(O)C3O)C2O)C(O)C2=C(C(O)C(O)C2=O)C1C(C)C (configuration not stated)
-62.1%[inhibitor] | CS(=O)(=O)N1CCC[C@@]2(CCN(C(=O)Nc3cccc(F)c3)C2)C1
12.5% | O=C(c1ccncc1)N1CCC2(CCCN(c3ccc(-c4ccccc4)cc3)C2)CC1

Reprinted from the listing for reference:
EPAC1 agonist | SMILES
-13.4% | C[Se]CC[C@H](N)C(=O)O
-9.2% | Cc1c(CC(C)(C)C(=O)O)n(Cc2ccc(Cl)cc2)c2ccc(F)cc12
-25.5% | COC(=O)c1c(OC)cc2c(c1C)Oc1c(Cl)c(OC(C)=O)c(Cl)c(C)c1C(=O)O2
22.4% | CC(C)C[C@@H](CO)N1CCNCCC1=O
? | COC1=CC(C)C2CC3OC(=O)CC4C(C)=C(OC)C(=O)C([C@]2(C)C1=O)[C@]34C (some centres not stated)
-1.0%&-0.7% | Cc1cc(C2CCCCC2)n(O)c(=O)c1
7.4% | CC(=O)c1ccccc1-c1ccc2c(c1)CC(CNC(=O)Cc1c[nH]c3ccccc13)O2 (configuration not stated)
-21.6% | COC(=O)N1CCC2(CCCN(Cc3ccccc3)C2)CC1
10.3% | O=C(Cn1nc2ccccc2n1)N1CCOc2ccc(CN3CCc4sccc4C3)cc2C1
-30.2%[inhibitor] | O=C(Oc1ccccc1)N1CCC2(CCCN(c3ccncc3)C2)CC1
-10.7% | CC1=C(C2=C(C)C(C(C)C)C3=C(C(=O)C(O)C3O)C2O)C(O)C2=C(C(O)C(O)C2=O)C1C(C)C (configuration not stated)
-62.1%[inhibitor] | CS(=O)(=O)N1CCC[C@@]2(CCN(C(=O)Nc3cccc(F)c3)C2)C1
12.5% | O=C(c1ccncc1)N1CCC2(CCCN(c3ccc(-c4ccccc4)cc3)C2)CC1

(list continues)
EPAC1 agonist | SMILES
1.6%&11.6%&-7.2% | O=[N+]([O-])c1cccc2cn[nH]c12
-21.5% | COc1cc(-c2noc(C)c2C#CC2(O)CCCCC2)cc(OC)c1OC
-3.7% | COc1ccc2ccccc2c1CN1CCCC(n2cc(C(=O)N3CCCC3)nn2)C1 (configuration not stated)
-12.8% | O=S(=O)(NCc1ccccc1Br)c1ccccc1Br
-48.3%[inhibitor] | COCCNc1cc(-c2ccccc2C)ncn1
1.1% | COCC1CCCN(Cc2ccc3c(c2)CN(C(=O)c2ccnn2C)CCO3)C1 (configuration not stated)
14.9% | COC(=O)[C@]12CCC(C)(C)C[C@@H]1[C@@H]1C(=O)C=C3[C@@]4(C)C=C(C#N)C(=O)C(C)(C)[C@@H]4CC[C@@]3(C)[C@]1(C)CC2
-12.4% | COc1ccc(Oc2ncc3nc(-c4ccccc4)c(=O)n(C4CC4)c3n2)cc1
3.7% | CCC1CN2CCc3cc(OC)c(OC)cc3C2CC1CC1NCCc2cc(OC)c(OC)cc21 (configuration not stated)
-23.0% | CC[N+](C)(C)c1ccc(/C=C/c2ccncc2)cc1
? | O=C1NCN(c2ccccc2)C12CCN(CCCC(c1ccc(F)cc1)c1ccc(F)cc1)CC2
-8.2% | NC(=O)NS(=O)(=O)c1ccc(N)cc1
-7.4% | CC[C@H](C)[C@H](NC(=O)[C@H](C)NC(=O)[C@H](CC(N)=O)NC(=O)[C@H](CCCCN)NC(=O)[C@H](Cc1ccccc1)NC(=O)[C@H](CC(C)C)NC(=O)[C@@H](NC(=O)[C@@H](NC(=O)[C@H](CC(C)C)NC(=O)[C@@H]1CCCN1C(=O)[C@@H](NC(=O)[C@H](CCC(N)=O)NC(=O)[C@H](CO)NC(=O)[C@H](CCCCN)NC(=O)[C@H](CCC(=O)O)NC(=O)[C@H](CO)NC(=O)[C@@H](NC(=O)[C@H](CCSC)NC(=O)[C@H](Cc1ccccc1)NC(=O)CNC(=O)CNC(=O)[C@@H](N)Cc1ccc(O)cc1)[C@@H](C)O)[C@@H](C)O)C(C)C)[C@@H](C)O)C(=O)N[C@H](C(=O)N[C@@H](CCCCN)C(=O)N[C@@H](CC(N)=O)C(=O)N[C@@H](C)C(=O)N[C@@H](Cc1ccc(O)cc1)C(=O)N[C@@H](CCCCN)C(=O)N[C@@H](CCCCN)C(=O)NCC(=O)N[C@@H](CCC(=O)O)C(=O)O)[C@@H](C)CC
-20.2% | CCC(Oc1ccccc1)C(=O)N[C@@H]1C(=O)N2[C@@H]1SC(C)(C)[C@@H]2C(=O)O (some centres not stated)
-7.4% | F[Si-2](F)(F)(F)(F)F
-8.2% | CC(C)NC(=O)c1cn(C2CCCN(C(=O)c3cc4ccccc4oc3=O)C2)nn1 (configuration not stated)
-15.0% | Cc1ccc(C(=O)NCCc2nnc3n2CCN(Cc2cc(C)cc(C)c2)CC3)cc1
8.0% | O=C(/C=C/c1ccccc1)NCCO
11.6% | CSc1ccc(CN2CCOc3ccc(CN4CCCCC4CO)cc3C2)cc1 (configuration not stated)
-32.0% | CC(C)C[C@@H](CSc1ccccc1)N1CCN(CCc2ccccc2)CCC1=O
11.1% | O=C(CN1Cc2ccccc2OC(c2ccsc2)C1)N1CCC(c2nc3ccccc3[nH]2)CC1 (configuration not stated)
19.4% | CCNc1ncc2nc(-c3cccs3)c(=O)n(Cc3ccc(F)cc3)c2n1
-1.2% | CC(NC(=O)c1ccco1)c1nnc2n1CCN(Cc1ccc(N3CCCC3)cc1)CC2 (configuration not stated)
5.4% | COc1ccccc1-c1oc2ccccc2c(=O)c1OC
22.7% | CC(C)(C)c1ccc(/C=C/C(=O)Nc2ccc3c(c2)OCCO3)cc1
7.7% | Cn1c([N+](=O)[O-])cnc1COC(N)=O
-8.8%&-31.0%&6.3% | OCc1cc(C(O)CNCCCCCCOCCCCc2ccccc2)ccc1O (configuration not stated)
? | O=S1(=O)CCOC[C@H](c2ccccc2)N1Cc1ccccc1
-7.9%&-40.5% | COc1ccc(NC(=O)c2ccc(-c3ccc(-c4noc(C)n4)cc3C)cc2)cc1N1CCN(C)CC1
-12.6% | CC(CN(C)C)CN1c2ccccc2Sc2ccc(C(F)(F)F)cc21 (configuration not stated)
-50.6%[inhibitor] | O=C1CCN(Cc2ccccc2)CCN1[C@H](COc1ccccc1)c1ccccc1
-8.5% | COc1ccc(C(=O)Oc2ccc3c(-c4ccc(OC)cc4)cc(=O)oc3c2)cc1
6.3% | Cc1ccc2c(CC(=O)N3CCOc4ccc(CN5CCOCC5)cc4C3)cc(=O)oc2c1
-62.7%[inhibitor] | Cc1ccc2ccccc2n1
-76.8%[inhibitor] | O=C(c1ccncc1)N1CCC[C@@]2(CCN(c3ncccn3)C2)C1
13.6% | Cc1ncc2c(c1CNS(=O)(=O)c1cccs1)CCN(C(=O)/C=C/c1ccc(F)cc1F)C2
-11.7% | Clc1ccccc1-c1cc(NCc2ccccc2)ncn1
-9.7% | COc1ccc(OC)c(-c2ccnc(-n3ncc(C(=O)N(C)CCc4ccccn4)c3C)n2)c1
-18.1% | C[N+]1(CC2COC(c3ccccc3)(C3CCCCC3)O2)CCCCC1 (configuration not stated)
-34.9%[inhibitor] | O=C(c1ccncc1)N1CCC2(CC1)CCN(c1ccncc1)CC2
? | CC(C)NC(=O)N1CC[C@@]2(CCCN(C(=O)c3ccco3)C2)C1
-13.1% | CN(CCO)C(=O)c1cn(C2CCCN(Cc3ccc4ccccc4c3)C2)nn1 (configuration not stated)
? | O=[N+]([O-])c1c(Cl)cccc1-c1c[nH]cc1Cl
4.4%&-1.9% | CN[C@H](CC(C)C)C(=O)N[C@H]1C(=O)N[C@@H](CC(N)=O)C(=O)N[C@H]2C(=O)N[C@H]3C(=O)N[C@H](C(=O)N[C@@H](C(=O)O)c4cc(O)cc(O)c4-c4cc3ccc4O)[C@H](O)c3ccc(c(Cl)c3)Oc3cc2cc(c3O[C@@H]2O[C@H](CO)[C@@H](O)[C@H](O)[C@H]2O[C@H]2C[C@](C)(N)C(O)[C@H](C)O2)Oc2ccc(cc2Cl)[C@H]1O (some centres not stated)
? | CC(=O)OC1CC2C(C)(C)C(=O)CC[C@]2(C)C2CC[C@]3(C)C(=CC(=O)OC3c3ccoc3)[C@]12C (some centres not stated)
14.5% | COc1cc(C(C)=O)cc(OC)c1O
-63.1%[inhibitor] | COCC(=O)N1CCC2(CCN(Cc3ccccc3OC)CC2)CC1
-51.0%[inhibitor] | CCNc1ncc2nc(-c3ccc(OC)cc3)c(=O)n(Cc3ccc(F)cc3)c2n1
? | COCCn1c(=O)c(-c2ccc(Cl)cc2)nc2cnc(Oc3ccccc3)nc21
-3.8% | CCCCCCCCCCCCCCC[C@@H](O)[C@H](CO)NC(C)=O
-11.1%&7.5% | C[C@@H](N)C(=O)O
100µM* | Cc1ccc2c(/C=C/c3c[nH]c4ccccc34)ccnc2c1C
5.9% | Cc1noc(C)c1CC(=O)N1CCOc2c(cc(-c3nc4ccccc4s3)cc2OC2CCOC2)C1 (configuration not stated)
-6.8% | OC/C=C/c1ccccc1
4.0% | CC1CN(CCNC(=O)C2CCCc3c2[nH]c2ccccc32)Cc2ccccc2O1 (configuration not stated)
3.5% | CN1CCCCC1C(=O)N1CCC(Oc2cccc(CN3CCN(c4ccccn4)CC3)c2)CC1 (configuration not stated)
-17.1% | CCC1COCCS(=O)(=O)N1Cc1ccccc1C (configuration not stated)
100µM* | COc1ccccc1CNc1nc(-c2cccc(C#N)c2)nc2ccccc12
9.4%&10.2% | C[C@]12CCC(=O)C=C1CC[C@H]1[C@@H]3CC[C@](O)(C(=O)CO)[C@@]3(C)C[C@H](O)[C@@]12F
-2.8% | COc1ccccc1-c1cc(NCc2cccc(C)c2)ncn1

Following part
EPAC1 agonist | SMILES
6.3% | COc1ccc(-c2nc3cnc(N(C)C)nc3n(C[C@H]3CCCO3)c2=O)cc1
8.6% | O=C(O)[C@H]1NCCC[C@H]1C(=O)O
-40.2% | Cc1cc(C(=O)O[C@H]2[C@H](C)NS(=O)(=O)[C@H]3C[C@@H]4C=C[C@]23O4)cc([N+](=O)[O-])c1
-17.2% | c1cncc(-c2cncnc2-n2ccnc2)c1
18.0% | O=C(Nc1cccc(C2=NCCN2)c1)Nc1cccc(C2=NCCN2)c1
-72.9%[inhibitor] | COc1ccc(C(=O)N2CCC[C@@]3(CCN(c4ccccn4)C3)C2)cc1
-23.8% | CC1=NN(c2ccc([N+](=O)[O-])cc2)C(=O)C1[N+](=O)[O-] (configuration not stated)
-2.1% | COc1ccccc1-c1nccc(NC2CCNCC2)n1
-9.1% | CC(=O)Nc1cc(C(=O)N2CCN(C(=O)c3ccco3)CC2)cc2ncn(CCc3ccccn3)c12
22.1% | CCNC(=O)CCC(N)C(=O)O (configuration not stated)
0.5% | CC1(C)C(O)C=C[C@@]2(C)C1CC(=O)O[C@@]1(C)C3=CC(=O)OC(c4ccoc4)[C@]3(C)CCC21 (some centres not stated)
-6.0% | CSc1nccc(-c2cc(Cl)c3c(c2)CC(CNC(=O)c2nonc2C)O3)n1 (configuration not stated)
13.8% | COc1cccc(CN2C(=O)NC(C)(C3CCN(Cc4cc(F)cc(F)c4)CC3)C2=O)c1OC (configuration not stated)
1.1% | Cc1c(C(=O)NCC(C)C)sc2ncnc(NCC3CCCO3)c12 (configuration not stated)
14.5% | O=Cc1ccccc1C=O
10.8% | COC(=O)[C@@H]1C[C@H](NC(=O)c2ccccn2)CN1Cc1cccc2ccccc12
-33.3%[inhibitor] | CC(=O)NCCNc1ncnc2ccc(-c3ccccc3Cl)cc12
-25.3% | C=C1/C(=C\C=C2/CCC[C@]3(C)[C@@H]([C@H](C)OCCC(C)(C)O)CC[C@@H]23)C[C@@H](O)C[C@@H]1O

From PubChem BioAssay

The list is partial; count on the stated rates, not on these rows.
